# Tg IFNy HTS: T. gondii growth inhibition under IFN-gamma | Toxoplasma gondii growth in IFN-gamma-treated host cells; active compounds read low; reference of the scale not given here | activity change, negative = inhibition, %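 (about 20 µM by stock and volumes)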 | 3.8% of 69,000 active | AID 1259416;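 active = below -70%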;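 note: host cells are HeLa cells infected with Toxoplasma gondii; parasite growth read as luciferase light; one replicate is shown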
# Numbers without * were called inactive; i = inactive; & = joins results of further samples. Not all compounds are listed; the hit share may differ from the screen's.
Structure,Tg IFNy HTS
COCCNC(=O)C1CCCC12CCN(Cc1cn(C)nc1C)C2 (stereo not given),3.5
CCOC(=O)c1csc(CCNc2nc(C)nc3c2cnn3C)n1,-45.5
CN(C)c1cncc(-c2cccc(-n3cccn3)c2)n1,190.4
C[C@@H]1CCCCO[C@H](CN(C)C(=O)CCCN(C)C)[C@@H](C)CN([C@H](C)CO)C(=O)c2cc(NC(=O)Nc3ccc4c(c3)OCO4)ccc2O1,260.9
CCN(CC)C(=O)CN1CCC(c2cc3nc(N(CC)CC)ncc3c(=O)[nH]2)CC1,13.4
O=C(c1nc2ccccc2[nH]c1=O)N1CCC(N2CCCC2=O)CC1,-45.5
COCC1(C(=O)N(C)Cc2n[nH]c3c2CCCCC3)CCC1,0.1
COc1ccc(CNC(=O)C2=C(C)C(=O)OC23CCN(S(C)(=O)=O)CC3)cc1OC,14.7
CC(C(=O)N(C)C)N(C)Cc1nn(C)c2cccc(Cl)c12 (stereo not given),-1.6
Cc1ccc(C(=O)N2CCc3c([nH]c4ccccc34)C2c2ccc(F)cc2)cc1 (stereo not given),-18.6
COC(=O)c1cc(-c2ccccc2)oc1CN,144.1
Cc1cc(C)c(Cn2cncn2)cc1CN1CCN2C(=O)CNC(=O)C2C1 (stereo not given),1.5
C[C@H]1C[C@@H]2CN(C(=O)CCc3ccccc3)CC[C@H]2O1,1.2
COCCC(=O)N1CCC2(CCOC2)C1 (stereo not given),-15.6
CC[C@@H](C)Nc1cc(C(=O)NC2CC3CCC(C2)N3c2ccc(C(=O)C3CC3)cn2)c(C)cc1C(N)=O (stereo not given in full),-62.8
CCCC(=O)Nc1ccc(-c2nc(Cn3nc(C)cc3C)c(C)o2)cc1,7.3
Cc1ccc(S(=O)(=O)N(C)C[C@@H]2Oc3c(NS(C)(=O)=O)cccc3C(=O)N([C@H](C)CO)C[C@H]2C)cc1,11.3
COc1ccc2c3c([nH]c2c1)[C@H](CO)N(Cc1nccs1)CC31CN(Cc2ccncc2)C1,i
COc1ccc(N2CCOCC3(CCCN(C(=O)c4ccc[nH]4)C3)C2)cc1 (stereo not given),7.2
O=C(C[C@@H]1C=C[C@H](NC(=O)Cc2ccccn2)[C@H](CO)O1)NCCc1ccncc1,94.2
CCc1ccc(S(=O)(=O)N2CCC3(CC2)c2cccn2-c2ccc(C)cc2N3CC)cc1,-64.8
Cc1ccc(OCCN(C)Cc2ccnc(C(C)C)n2)c(C)c1,6.9
Cc1nn(-c2ccccc2)c2c1C1(C)CC(C)(O2)c2c(C)nn(-c3ccccc3)c2O1,39.3
CCCCC1C(=O)N(C)CCN1C(=O)c1cn(CCC2CCCCC2)nn1 (stereo not given),2.1
CC(C)C(=O)N1CCCC1c1nc(N(C)C)ncc1-c1ccc(Cl)cc1 (stereo not given),-4.5
CC(C)N1CCC2(CC1)CC(NC(=O)C1CCOC1)c1ccccc1O2 (stereo not given),-5.1
CCS(=O)(=O)N1CCC2(CC1)OC(=O)C(C)=C2C(=O)Nc1cc(Cl)c(OC)cc1OC,72.3
COc1ccc(NC(=O)N2CCC3(CC2)Nc2cc(F)ccc2-n2cccc23)c(OC)c1,248.8
CCn1c(C2CCCN(C(=O)Cn3ccc4ccccc43)C2)nn(C)c1=O (stereo not given),0.2
CO[C@H]1CN(C)C(=O)c2cc(NS(C)(=O)=O)ccc2OC[C@H](C)N(C(=O)C2CCOCC2)C[C@H]1C,63.4

# Taken from above.
# CC(C)N1CCC2(CC1)CC(NC(=O)C1CCOC1)c1ccccc1O2 (stereo not given) | Tg IFNy HTS = -5.1
# COCCNC(=O)C1CCCC12CCN(Cc1cn(C)nc1C)C2 (stereo not given) | Tg IFNy HTS = 3.5
# CCc1ccc(S(=O)(=O)N2CCC3(CC2)c2cccn2-c2ccc(C)cc2N3CC)cc1 | Tg IFNy HTS = -64.8
# CC[C@@H](C)Nc1cc(C(=O)NC2CC3CCC(C2)N3c2ccc(C(=O)C3CC3)cn2)c(C)cc1C(N)=O (stereo not given in full) | Tg IFNy HTS = -62.8
# O=C(c1nc2ccccc2[nH]c1=O)N1CCC(N2CCCC2=O)CC1 | Tg IFNy HTS = -45.5

# New compounds follow
Structure,Tg IFNy HTS
COc1ccccc1-n1ccnc1-c1ccc(OCC(N)=O)cc1,8.0
O=C(N[C@@H]1C=C[C@H](CC(=O)N2CCC(Cc3ccccc3)CC2)O[C@@H]1CO)c1cnccn1,34.3
Clc1cccnc1-c1cccc2[nH]ccc12,9.3
O=C1NC(=O)[C@@H]2CN(Cc3cc4n(n3)CCCNC4)C[C@H]12,12.1
Cn1c(=O)cc(C(=O)Nc2cccc(Cl)c2N2CCOCC2)[nH]c1=O,-2.0
COC(=O)[C@@H]1[C@@H](CO)[C@@H]2Cn3c(ccc(C4=CCCC4)c3=O)[C@@H]2N1C(=O)Cc1cccnc1,0.2
CCCC(=O)Nc1ccc2c(c1)OC[C@@H](C)N(CC1CCOCC1)C[C@@H](C)[C@H](OC)CN(C)C2=O,-5.1
O=C(c1cccc(F)c1)N1CC2(C1)[C@H](c1ccccc1)[C@H](CO)N2Cc1ccccn1,27.9
Cc1cc(C(=O)N2CC[C@@H]3[C@H]2CCN3S(C)(=O)=O)no1,6.1
CC(C)CCN1C2(CCN(C(=O)NC3CCCC3)C2)c2ccccc2S1(=O)=O (stereo not given),-87.0*
O=C(c1cc(-c2ccnn2C2CCCC2)n2ccccc12)N1CCCCC1,-38.5
CCCC#Cc1ccc2c(c1)O[C@H](CN(C)Cc1ccccn1)[C@H](C)CN([C@@H](C)CO)S2(=O)=O,-94.3*
O=C1OCCN1Cc1nc(CCc2ccccc2)nn1-c1ccccn1,2.2
CO[C@H]1CN(C)C(=O)c2cc(NC(=O)Nc3c(C)noc3C)ccc2OC[C@H](C)NC[C@@H]1C,65.8
NCC(O)(CS(=O)(=O)O)c1ccc(Cl)cc1 (stereo not given),21.3&15.4
CCN1CCCc2cc(CN(C3CCCC3)S(=O)(=O)c3ccc4[nH]c(=O)ccc4c3)ccc21,-86.5*
COCC(=O)N1CC[C@@H](N(C)C)[C@@H]1Cc1cccnc1,-31.6
O=C1CN(O)C=C2N=c3ccccc3=C2N1c1ccc([N+](=O)[O-])cc1,9.9
CCOC(=O)[C@@]12CCCN(C(=O)c3cccnc3)C[C@@H]1CN(C(C)=O)C2,1.7
CCOc1ccc(N(Cc2nc(-c3ccccc3)oc2C)S(=O)(=O)c2cccs2)cc1,-58.5
CC(=O)Nc1ccc(Cl)c(C(=O)N(C)Cc2nc3ccccc3n2C)c1,5.1
Cc1nn(C(C)CC(=O)NC(c2ccc(F)cc2)c2nccn2C)c(C)c1Cl (stereo not given),25.7
C[C@@H]1CN([C@H](C)CO)C(=O)CCCn2nncc2CO[C@@H]1CN(C)C(=O)c1ccc(N2CCN(C)CC2)cc1,142.8
O=C(NC(=S)NCCc1ccccn1)c1ccccc1,14.2
COc1ccc(C(=O)N2C[C@@H]3[C@H](c4ccccc42)[C@H](CO)N3Cc2ccccc2Cl)cc1,-1.1
O=C(O)CN1Cc2nc(CN3CCCCC3)oc2C1,-30.3
COc1ccc2c(c1)NC1(CCN(S(=O)(=O)c3cc(C)ccc3NC(C)=O)CC1)c1cccn1-2,-15.8
CN(CC(=O)c1ccc(O)cc1)C(=O)C[C@@H]1C[C@@H]2C=C[C@H]1C2,9.5
Cc1n[nH]c(C)c1CCNC(=O)c1cccc(NCc2cccnc2)c1C,-1.3
COc1ccc(-c2[nH]ncc2CNC(=O)c2ccc(N3CCOCC3)cc2)cc1,7.4

# Reprinted at random: 2 compounds from above.
Structure,Tg IFNy HTS
NCC(O)(CS(=O)(=O)O)c1ccc(Cl)cc1 (stereo not given),21.3&15.4
CC(C)CCN1C2(CCN(C(=O)NC3CCCC3)C2)c2ccccc2S1(=O)=O (stereo not given),-87.0*

# Molecules listed so far that have two or more sulfur atoms (two):
Structure,Tg IFNy HTS
Cc1ccc(S(=O)(=O)N(C)C[C@@H]2Oc3c(NS(C)(=O)=O)cccc3C(=O)N([C@H](C)CO)C[C@H]2C)cc1,11.3
CCOc1ccc(N(Cc2nc(-c3ccccc3)oc2C)S(=O)(=O)c2cccs2)cc1,-58.5

# Carrying on:
Structure,Tg IFNy HTS
CS(=O)(=O)NCc1cnc2n1CCN(C(=O)C1CCOC1)CC2 (stereo not given),2.2
CCOC(=O)c1nn(Cc2ccc(OC)cc2)c2c1CN(C(=O)c1scc3c1OCCO3)CC2,-68.1
CCN1c2cc(C)ccc2-n2cccc2C12CCN(C(=O)Nc1ccc(C)c(C)c1)CC2,-93.0*
Cc1occc1-c1nc(N2CCN(c3ncccn3)CC2)ncc1-c1cnccn1,-8.2
CN1C(=O)c2cc(NC(=O)C3CCOCC3)ccc2OC[C@@H]2O[C@@H](CC(=O)NCc3ccccc3F)CC[C@@H]21,24.0
Cc1ccc(C(NC(=O)C(C)Oc2ccc(-n3cnnn3)cc2)c2cccnc2)cc1 (stereo not given),-10.4
CC(C)C(NC(=O)COc1cccnc1)c1nnc2n1CCNCC2 (stereo not given),-0.5
O=C(c1ccco1)N1CCCC2(C1)Nc1cccnc1NC2=NCc1ccccc1 (stereo not given),94.1
Cn1cnc(S(=O)(=O)NC2CCC3(CCC(=O)N3)CC2)c1 (stereo not given),0.9
CCc1ccc(CN2CCC3(CC2)CC(c2cccnc2)C(=O)N3)o1 (stereo not given),-58.4
CCCCCCSc1nsc(NC(C)=O)n1,55.4
Cc1c(F)cccc1NC(=O)CNC(C)c1cc(F)cc(F)c1 (stereo not given),-10.4
Cc1oc(-c2cccc(Oc3ccccc3)c2)nc1CN1[C@@H]2CC[C@H]1CNC(=O)C2,-8.5
CCOC(=O)c1ccc2c(c1)N(Cc1nc(-c3cc(C)ccc3C)oc1C)C(=O)c1ccccc1S2,-9.2
CC(C)CC#Cc1ccc([C@@H]2[C@H]3CN(C(=O)Nc4cc(F)ccc4F)CC(=O)N3[C@H]2CO)cc1,-47.5
Cc1ccc(C(=O)N2CCC(N3CCCC(C(=O)N4CCCC4)C3)CC2)cc1O (stereo not given),-48.9
COc1cccc(CC(=O)Nc2ccc(-c3nc(-c4cc(C)ccc4C)co3)cc2)c1,-2.5
CCN(CC)c1ccc2ccc(C(=O)N3CCCC3)cn12,32.6
COCC(=O)n1nc(-c2ccco2)nc1NCc1cccs1,29.5
Cc1oc(-c2ccc(NC(=O)c3ccccc3Cl)cc2)nc1Cn1cccn1,-100.0*
CCc1cc2c(cc1C(C)=O)C(C)(C)CCC2(C)C,17.0
O=C(C1CC1)N1C[C@H]2[C@@H](c3ccccc31)[C@H](CO)N2C(=O)c1ccccc1,1.3
CN(C(=O)c1ncn2c1CN(CC1CC1)S(=O)(=O)c1ccccc1-2)c1ccccc1,-105.2*
CCOC(=O)c1cc(-c2ccnn2S(=O)(=O)c2cccc(C(F)(F)F)c2)on1,-61.7
Cc1ccc(F)cc1NC(=O)c1c(O)c2ccccc2[nH]c1=O,158.5
Cc1ccccc1-n1cc(-c2ccnc(NC3CCNCC3)n2)cn1,-25.8
CN(C)CCN(Cc1cccs1)Cc1coc2ccc(Cl)cc2c1=O,7.1
COc1ccc2oc(CNC(=O)CN3CCCCCC3)nc2c1,1.3
Cc1cc(CN(Cc2ccsc2)Cc2ccco2)n(C)n1,1.2
CSCC[C@H](NC(=O)Nc1ccc(C)cc1C)C(=O)O,7.3
O=c1c(-c2cc(F)ccc2F)c(O)nc2n1CCCC2,-39.3
COc1cc(OC)cc(C(=O)NCCc2csc(-c3ccc(F)cc3)n2)c1,27.5
Cc1ccc(C(C)CCN2CCC(O)(Cn3ccc4ncccc43)CC2)o1 (stereo not given),54.4
Cc1cnc(CN[C@@H]2CN(C(=O)Nc3ccccc3C)C[C@H]2O)cn1,6.7
C[C@@H](NC(=O)[C@@H]1[C@@H](CO)[C@@H]2Cn3c(cccc3=O)[C@H]1N2C(=O)C1CCC1)c1ccccc1,-1.6
CC(C)[C@@H]1C(=O)N[C@@H](c2ccc(F)cc2)CC=CC[C@@H](C)Oc2ccccc2C(=O)N1C (mixture of isomers),-33.1
Cc1noc(C)c1NC(=O)N(C)C[C@H]1Oc2ccc(NC(=O)Cc3cn(C)c4ccccc34)cc2CC(=O)N([C@H](C)CO)C[C@H]1C,-6.0
COc1ccc(-c2nc(C)c(CCNC(=O)C(=O)Nc3ccccc3)s2)cc1OC,14.3
CC(C)=CCCC1=CCC2C(=O)NNC(=O)C2C1 (stereo not given),-9.9
COc1ccc(-c2nc(C)c(CCNC(=O)C(=O)Nc3ccccc3OC)s2)cc1,36.0
CN(C)c1nc2c(cc1C(=O)N1CCCC1)CCN(Cc1ccccc1F)CC2,-3.9
Cc1cc(C)n2nc(C)c(C(=O)N3CCC4(CN(C)C(=O)O4)C3)c2n1 (stereo not given),-2.4
Cc1ccc(C)c(NC(=O)c2c(O)c3cccnc3n(-c3ccc(F)cc3)c2=O)c1,75.2
C[C@H](CO)N1C[C@H](C)[C@@H](CN(C)S(C)(=O)=O)Oc2ncc(-c3ccc(F)cc3)cc2C1=O,-13.1
COCCN1C(=O)CCC12CCN(C(=O)c1cnoc1C)CC2,-53.7
Cc1ccccc1CN1CCC2(CC1)CC(OCc1ccncc1)CO2 (stereo not given),-1.9
N#C[C@H]1[C@H](c2ccccc2C2=CCCC2)[C@@H](CO)N1C(=O)NC1CCCCC1,-48.9
COc1ccc2c3c([nH]c2c1)[C@H](CO)NCC31CCN(C(=O)Nc2ccccc2F)CC1,14.2
COc1cccc(C#Cc2ccc3c(c2)O[C@H](CN(C)C(=O)CN2CCOCC2)[C@@H](C)CN([C@H](C)CO)S3(=O)=O)c1,-6.0
Cc1cccc(CN(Cc2ccccc2)C(=O)CCc2ccncc2)n1,-0.5
Cc1cc(C)n(-c2ccc(C(=O)NCCc3cc(Cl)c4c(c3)OCCO4)cc2)n1,-22.4
COc1ccc(-c2nc(CCNC(=O)c3ccccc3F)cs2)cc1,412.4
CC(=O)C(Sc1ncccn1)C(C)=O,-15.2
O=C1COC2(CCN(Cc3nccs3)CC2)CN1Cc1ccccn1,6.9
